Source: PubChem BioAssay
HPGD block = inhibitors of human 15-hydroxyprostaglandin dehydrogenase (HPGD); P15428; Potency, µM, inactives show at the highest dose activity change, negative = inhibition, usual class: inhibitors; AID 894; purified HPGD, NADH fluorescence kinetic, PGE2 substrate; 150,000 tested, 4.3% active; active = well fitted inhibition curve with a large enough effect (not every such curve was filed as active); inconclusive = small, poorly fitted or top-dose-only effect, or another doubt; inactive = no such curve, though single readings can be large or run the other way;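 also: top concentration of the series not given in the record; plate controls included wells without enzyme; inactives centre near -10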
Target sequence (P15428 whole entry, looked up): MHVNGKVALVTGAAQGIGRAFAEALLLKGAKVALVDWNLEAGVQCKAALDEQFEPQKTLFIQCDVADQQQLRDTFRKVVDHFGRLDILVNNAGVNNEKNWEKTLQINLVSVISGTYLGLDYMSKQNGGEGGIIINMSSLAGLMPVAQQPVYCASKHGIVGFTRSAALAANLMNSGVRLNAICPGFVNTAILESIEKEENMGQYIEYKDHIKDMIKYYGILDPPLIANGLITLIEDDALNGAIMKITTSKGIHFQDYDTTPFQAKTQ
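NADH formation kinetics: reaction with 30 uM PGE2 and 1 mM NAD+ (final), 20 nM enzyme, Tris-HCl pH 8 with Tween 20, after 15 min compound preincubation at room temperature. Fluorescence change, last versus first of five reads.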
Starred values were filed as active, the others as inactive; ? = inconclusive; & = joins results of further samples. % is scaled to controls: 0 for no effect and ±100 for the full control effect; potency is read from the fitted curve at half-maximal effect. Not all compounds are listed (hit frequency here may not be typical).

compound	HPGD block
Cn1cccc1C(=O)C(=O)Nc1ccc(Cl)cc1	-5.6%
Cc1nc2ccc(F)cc2cc1C(=O)Nc1cccc(Cl)c1C	-3.5%
O=C(O)c1ccccc1C(=O)OCCCCOC(=O)c1ccccc1C(=O)O	-10.8%
COc1ccc(CN2C(=O)c3ccccc3C2C(=O)NC2CCCC2)c(OC)c1 (configuration not stated)	-5.6%
O=C(Oc1ccccc1)N1CCC2(CC1)CN(c1ccccn1)C2	-22.9%
CCS(=O)(=O)N1CCC(C(=O)NCCCN2CCCC2)CC1	-8.2%
COc1ccc(N2CCN(Cc3nc4c(c(=O)[nH]c(=O)n4C)n3CCCc3ccccc3)CC2)cc1	-1.6%
CCCOc1c(Cl)cc(/C=N/O)cc1OCC	25.1µM*
C=CCn1c(=O)c2c3c(sc2n2c(Nc4ccccc4)nnc12)CCCC3	-1.0%
CC1=CC(C)(C)N2C(=O)C3(C(C#N)=C(N)Oc4cc(C)oc(=O)c43)c3cccc1c32 (configuration not stated)	-14.9%
CN1CCN(CCOc2cccc(Cl)c2)CC1	-6.1%
C=CCn1c(SCn2nnc3ccccc3c2=O)nc2scc(-c3cccs3)c2c1=O	?
Cn1ncc(Cl)c1C(=O)Nc1ccncc1	2.8%
CCCCC1S/C(=N/N=C/c2ccc(OC)cc2)N(Cc2ccc(OC)cc2)C1=O (configuration not stated)	-26.3%
CC(C)(C)OC(=O)N1CCC[C@H]1c1nnc(SCc2ccccc2F)o1	-4.7%
COc1ccc(OCCSc2nnc(-c3ccc(OC)cc3)n2N)cc1	-6.4%
CC(Oc1ccc(-c2ccccc2)c(F)c1)c1ccn(S(=O)(=O)c2ccc(Br)cc2)n1 (configuration not stated)	-2.9%
COc1ccc(NC(=O)CCN2CCN(S(=O)(=O)c3cc(Cl)ccc3Cl)CC2)cc1	-10.8%
COc1ccc(C2CC(c3ccccc3)=NN2C(=O)COC(=O)c2cc(S(=O)(=O)N3CCOCC3)ccc2Cl)cc1 (configuration not stated)	?
CC(=O)CCc1c(C)[nH]c2ccccc2c1=O	-11.9%
COCCn1c(=NC(=O)/C=C/c2cccs2)sc2cc(NC(C)=O)ccc21	-17.5%
c1ccc(CCNC2=NCCCS2)cc1	-7.7%
C1CCN=C(Nc2nc3c(s2)CCCC3)CC1	-5.5%
Cn1c(=O)c2c(ncn2CC(=O)N(Cc2ccccc2)c2ccccn2)n(C)c1=O	-1.7%
CC(C)(C)OC(=O)N1CCC[C@H]1c1nnc(SCc2ccc(Cl)cc2Cl)o1	-11.9%
CCC(=O)NC(=S)Nc1ccc(NC(=O)COc2ccccc2)cc1	-17.5%
O=S(=O)(c1ccccc1)N1CCC2(CC1)CN(c1ccccn1)C2	-17.4%
CC(=NCCCn1ccnc1)c1c(-c2ccccc2)[nH]n(-c2nc3ccccc3s2)c1=O	-0.7%
C=CCOn1c(=O)c(C)[n+]([O-])c2ccccc21	-18.9%
Cc1cc(C2(c3ccc(O)c(C)c3)OC(=O)c3ccccc32)ccc1O	-29.1%
Cc1cccc2cc(C#N)c(SCC(=O)Nc3ccccc3N3CCOCC3)nc12	-18.9%
CCc1ccc2[nH]c(=O)c(CN(CCN(C)C)C(=O)Nc3ccccc3)cc2c1	-13.1%
Clc1nc2ccccc2cc1/C=N/Nc1nc2ccccc2[nH]1	-2.8%
CS(=O)(=O)N1CCC(NC(=O)Cc2ccccc2)CC1	-2.8%
CCC1(CC)Cc2ccccc2-c2nc(CN3CCOCC3)[nH]c(=O)c21	?
Cc1ccc(-c2nc3ccccc3[nH]2)cc1NC(=O)c1sc2ccccc2c1Cl	?
Cc1cccc(CSc2nnc(-c3ccccn3)n2N)c1	?
C/C(N)=C(/C#N)C(=O)COC(=O)c1cc(C)n(-c2ccc(F)cc2)c1C	-27.4%
COc1cc(NC(=S)N2CCN(C/C=C/c3ccccc3)CC2)cc(OC)c1	-10.7%
O=c1cc(-c2cccc(O)c2)oc2c(O)c(O)ccc12	3.16µM*
Cc1ccc(NC(=O)CSCC#N)cc1Cl	-25.6%
CN=C1SC(C(=O)O)CC(=O)N1C (configuration not stated)	-5.7%
CCOC(=O)N/N=C/C=C/c1ccccc1	-15.8%
N/C(=N\OC(=O)Cc1ccc(-c2ccccc2)cc1)c1cccnc1	-5.5%
Cc1noc(C)c1COc1ccc(C(=O)OCC(=O)NC(=O)C2COc3ccccc3O2)cc1 (configuration not stated)	-4.5%
CCCCn1nc(C(=O)N[C@@H](CCSC)c2nc3ccccc3[nH]2)c2ccccc2c1=O	-3.1%
Cc1ccc(SCCC(=O)Nc2ccccc2C(=O)NC2CCCCC2)cc1	-23.7%
O=C(c1ccncc1)c1ccc(Br)cc1	-7.0%
Cc1cccc(C(=O)O/N=C(\c2ccccc2)c2cccnc2)c1	-21.2%
O=C1c2ccccc2C(Nc2ccc3c(c2)OCO3)N1Cc1ccco1 (configuration not stated)	-8.6%
CCN(C(=O)COc1cccnc1[N+](=O)[O-])C1CCS(=O)(=O)C1 (configuration not stated)	-10.7%
Cc1ccc(-c2nc(CSCC(=O)N3CCOCC3)c(C)o2)cc1	-15.7%
Cc1ccc(C(c2nnnn2C(C)(C)C)N(Cc2ccco2)Cc2cccs2)cc1 (configuration not stated)	-8.4%
COc1ccc(Nc2nc(N3CCCC3)nc(N3CCCC3)n2)c(OC)c1	-8.5%
O=C(CCN1CCN(CCO)CC1)Nc1ccc(OCc2ccccc2)cc1	-12.5%
CCN(CC)C(=O)c1sc(NC(=O)c2cccnc2)c(C(=O)OC)c1C	20µM*
COc1ccc(N2CCN(C(=O)C(CCSC)N=C3NS(=O)(=O)c4ccccc43)CC2)cc1 (configuration not stated)	-0.5%
CN(Cc1ccccc1)c1nc2c(c(=O)[nH]c(=O)n2C)n1C	-16.3%
COc1cccc(C(=O)O/N=C(\N)c2ccc([N+](=O)[O-])cc2)c1OC	?
CCc1ccccc1N(C(=O)c1cccs1)C1C=CS(=O)(=O)C1 (configuration not stated)	-0.5%

Compounds above containing a furan ring, fused or not, in the order listed:
compound	HPGD block
O=C1c2ccccc2C(Nc2ccc3c(c2)OCO3)N1Cc1ccco1 (configuration not stated)	-8.6%
Cc1ccc(C(c2nnnn2C(C)(C)C)N(Cc2ccco2)Cc2cccs2)cc1 (configuration not stated)	-8.4%

The results go on.
compound	HPGD block
Cc1ccc(NC(=O)COC(=O)CCc2nc3ccccc3n2-c2ccccc2)c(C)c1	-8.3%
COc1ccc2c(c1)CCc1c(C(=O)N3CCOCC3)noc1-2	-24.9%
CCOc1ccc(N(CC(=O)Nc2ccccc2C(=O)N2CCOCC2)S(=O)(=O)c2ccc(F)cc2)cc1	-11.8%
COc1ccccc1C(=O)Oc1cc(N)n(S(=O)(=O)c2ccc(C)cc2)n1	-10.6%
CCOC(=O)C1=C(O)/C(=C/c2cc(OC)c(O)c(OC)c2)SC1=Nc1ccc(OC)cc1	-20.4%
COc1ccccc1N1CCN(CCCCNC(=O)c2ccc3ccccc3c2)CC1	-14.3%&-12.2%
CCN(CC)S(=O)(=O)c1cc(C(=O)Nc2ccccn2)ccc1C	-9.8%
Cc1cccc(NC2SC(=O)N(CC(=O)O)C2=O)c1 (configuration not stated)	-2.4%
COc1ccc(-c2cc(=O)c3ccccc3n2C)cc1	-21.2%
CCN(C(=O)COC(=O)c1cnc(C)cn1)C1CCCCC1	-2.7%
N#Cc1ccccc1Sc1ccccc1C(=O)Nc1ccccc1	-2.9%
O=C(N/N=C/c1ccco1)c1cc([N+](=O)[O-])cc([N+](=O)[O-])c1	-15.4%
COc1ccc(C(=O)OCC(=O)c2ccccc2)cc1S(=O)(=O)N1CCOCC1	-4.3%
CN(C)CC(C)(C)CNC(=O)c1cc(=O)c2ccccc2o1	-4.8%
CC1=C(C(=O)OCC(C)C)C(c2ccsc2)C2=C(CCCC2=O)N1 (configuration not stated)	-26.1%
Cc1ccc(-c2cc3ccccc3nc2N2CCCC2)cc1	?
COc1ccc(-c2cc(C(=O)Oc3ccc([N+](=O)[O-])cc3)c3ccccc3n2)cc1	?
CC1CCCC(NC(=O)c2n[nH]c(=O)c3ccccc23)C1C (configuration not stated)	-3.0%
COc1ccc(C)cc1NC(=O)Cn1cnc2sc(C)c(S(=O)(=O)N3CCOCC3)c2c1=O	-9.3%
Nn1c(SCC(=O)NCc2ccccc2)nncc1=O	-8.5%
Cc1cccc(C)c1NC(=O)N1CCN(c2nc3ccccc3s2)CC1	-8.8%
COC(=O)Cc1csc(Nc2ccccc2Cl)n1	?
CC(C)C(=O)OCC(=O)Nc1ccc(N=Nc2ccccc2)cc1	-14.5%
CN(CCOc1ccc(-c2ccn(S(=O)(=O)c3cccc4ccccc34)n2)cc1)c1ccccn1	-14.2%
Cn1c(SCC(=O)NC(C)(C)C)nnc1-c1cccc(NC(=O)c2ccccc2F)c1	-1.0%
Clc1ccc(-c2nnn(Cc3nc4ccccc4s3)n2)cc1	-13.9%
Cc1ccc(NC(=O)CSc2nc(NS(=O)(=O)c3ccccc3)cc(=O)[nH]2)cc1	-2.9%
CN(C)S(=O)(=O)Oc1cccc(C(=O)Nc2ccc(Cl)cc2)c1	-17.2%
CCOC(=O)Cc1c(C)nc2c(-c3ccccc3)c(-c3ccccc3)[nH]n2c1=O	?
Cn1cccc1C(=O)N1CCC2(CCCN(Cc3nccs3)C2)CC1	-1.4%
CCOC(=O)CN1C(=O)N[C@@H](c2cccc(C(F)(F)F)c2)[C@@H](C(=O)OC)[C@H]1C	2.8%
CCOC(=O)C1CCCN(C(=O)c2cc(Cl)ccc2Cl)C1 (configuration not stated)	-4.4%
CN(C)c1ccc(C2NCC(CCl)O2)cc1 (configuration not stated)	-4.7%
Cc1cc(-c2n[nH]c(=S)n2/N=C/c2ccc(Cl)c([N+](=O)[O-])c2)n[nH]1	7.94µM*
COc1cccc(NC(=O)CN2CCN(c3nc(-c4cccc(OC)c4)cs3)CC2)c1	-12.8%
Cn1c(SCc2cccnc2)nnc1-c1c[nH]c2ccccc12	-4.1%
CC(=O)N1CCN=C1SCc1ccccc1	-12.4%
CCOCCCNC(=O)CN1C(=O)C(CC)Oc2ccccc21 (configuration not stated)	2.0%
COc1ccccc1NC(=O)C(=O)NCc1ccccc1Cl	-4.4%
N#Cc1c(NC(=O)C2CC2)sc2c1CCCCC2	-13.1%
c1ccc2sc(SN3CCOCC3)nc2c1	14.1µM*
O=C(Nc1cc(Cl)cc(Cl)c1)C(NCCO)c1ccccc1 (configuration not stated)	-8.5%
Nc1cc(=O)[nH]c(=O)n1CC1CC1	-23.7%&-11.4%
CC(C)c1nc(-c2ccc([N+](=O)[O-])cc2)cs1	-13.8%
CC(C)(C)n1nnnc1C(c1ccc(Cl)cc1)N1CCCc2ccccc21 (configuration not stated)	-10.1%
CCOC(=O)C(NCCCCl)c1ccccc1 (configuration not stated)	-7.4%
Cc1c(NC(=O)C2CCCN2C(=O)c2cccs2)c(=O)n(-c2ccccc2)n1C (configuration not stated)	-13.3%
O=C(Oc1c(Cl)cc(Cl)c2cccnc12)N1CCOCC1	-10.1%
O=S(=O)(O)c1ccccc1	-6.0%
CCNc1nc(C)nc2c1oc1ccccc12	-1.9%
Cc1ccc(NS(=O)(=O)c2ccc(Cl)c(C(=O)Nc3ccccc3-c3nc4ccccc4[nH]3)c2)cc1C	?
CCOC(=O)c1cn(CC)c2ccc(S(=O)(=O)N3CCC(C)CC3)cc2c1=O	15.8µM*
CN1CCN(S(=O)(=O)c2ccc(SCCOc3ccccc3)nc2)CC1	-0.1%
COCCNC(=O)CSc1nc2ccc(N3CCOCC3)cc2c(=O)n1CCc1ccccc1	?
Cc1cc(NC(=O)C2=C(O)c3ccccc3S(=O)(=O)N2C)no1	-5.3%&-7.1%&1.9%
COc1ccc(-c2ccc(=O)n(CC(=O)Nc3nnc(C(C)C)s3)n2)cc1OC	-26.2%
CCNc1ccc2noc3c2c1C(=O)c1ccccc1-3	-17.5%
CSc1cccc(NC(=O)/C=C/c2ccccc2)c1	-9.9%
Cc1cc(C)c[n+](-c2nc3ccccc3nc2[N-]S(=O)(=O)c2cccs2)c1	-0.5%
CCC(C)Nc1nc2c(c(=O)n(C)c(=O)n2C)n1Cc1ccc(F)cc1 (configuration not stated)	-15.6%

Structures above containing bromine:
compound	HPGD block
CC(Oc1ccc(-c2ccccc2)c(F)c1)c1ccn(S(=O)(=O)c2ccc(Br)cc2)n1 (configuration not stated)	-2.9%
O=C(c1ccncc1)c1ccc(Br)cc1	-7.0%

Further results
compound	HPGD block
Clc1ccc(-c2cnc3n2CCC3)cc1	-3.5%
Cc1cc(C)c2c(N)c3ccccc3nc2n1	?
O=C(Nc1cc(C(=O)N2CCCC2)ccc1N1CCCC1)c1ccccc1	25.1µM*
Cc1nnc(SCC(=O)Nc2ccc3c(c2)COC3=O)n1-c1ccccc1	-7.2%
COc1cc(C(=O)Nc2ccc(S(=O)(=O)N3CCCCC3C)cc2)cc(OC)c1OC (configuration not stated)	-13.9%

An excerpt of the results above, as a working copy:
compound	HPGD block
Cc1nnc(SCC(=O)Nc2ccc3c(c2)COC3=O)n1-c1ccccc1	-7.2%
COc1cc(C(=O)Nc2ccc(S(=O)(=O)N3CCCCC3C)cc2)cc(OC)c1OC (configuration not stated)	-13.9%
